TRPML1 inh – blocks the human TRPML1 channel | Q9GZU1 | TRPML1-inducible cells, Ca2+ dye fluorescence, FDSS; stronger effect = lower value; inhibition of EC80 agonist-evoked calcium signal | activity change, negative = inhibition, % (concentration not given with the values) | 0.02% of 390,000 active; in the data active means activity change below about -50%; inconclusive means about -30% to -50%; inactive means above about -30%;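 also: stimulus is agonist 54-4 at its EC80 concentration; % is scaled to controls: 0 for no effect and ±100 for the full control effect; compound concentration not given in the record; the text of the record puts the active cut at -80%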
Target sequence (Q9GZU1 whole entry, looked up): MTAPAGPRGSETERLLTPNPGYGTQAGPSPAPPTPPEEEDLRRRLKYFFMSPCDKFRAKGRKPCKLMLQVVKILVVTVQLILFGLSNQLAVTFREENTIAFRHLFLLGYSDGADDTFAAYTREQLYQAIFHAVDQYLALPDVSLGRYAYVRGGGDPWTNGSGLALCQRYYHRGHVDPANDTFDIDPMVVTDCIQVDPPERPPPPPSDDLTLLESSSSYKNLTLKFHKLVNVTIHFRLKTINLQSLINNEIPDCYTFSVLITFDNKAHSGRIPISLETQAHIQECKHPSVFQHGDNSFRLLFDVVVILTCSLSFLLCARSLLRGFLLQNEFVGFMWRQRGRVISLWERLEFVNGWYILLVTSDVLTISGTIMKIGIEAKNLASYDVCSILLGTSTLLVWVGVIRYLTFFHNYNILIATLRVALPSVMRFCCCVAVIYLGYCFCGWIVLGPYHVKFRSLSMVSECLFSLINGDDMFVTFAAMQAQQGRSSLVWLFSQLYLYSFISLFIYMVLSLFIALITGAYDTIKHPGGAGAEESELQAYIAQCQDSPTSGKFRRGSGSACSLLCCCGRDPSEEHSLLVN
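Calcium fluorescence in TRPML1-DL cells induced overnight with Tet: a 110 s read after compound pin addition, then a 110 s antagonist read after challenge with 54-4 at 4 uM final (EC80).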
D2 PAM – positive allosteric modulators of human D2 dopamine receptor; P14416; DiscoveRx D2 beta-arrestin cells, luminescence, 90 min; 100% = 57 uM dopamine signal; potentiation, % (test concentration not listed); 0.23% of 360,000 active; AID 624464; active = potentiation of 50% or more; inconclusive = 30% to 50%; inactive = 30% or less;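 also: compound concentration not given in the record; tested on top of an EC20 dose of dopamine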
Target sequence (P14416 whole entry, looked up): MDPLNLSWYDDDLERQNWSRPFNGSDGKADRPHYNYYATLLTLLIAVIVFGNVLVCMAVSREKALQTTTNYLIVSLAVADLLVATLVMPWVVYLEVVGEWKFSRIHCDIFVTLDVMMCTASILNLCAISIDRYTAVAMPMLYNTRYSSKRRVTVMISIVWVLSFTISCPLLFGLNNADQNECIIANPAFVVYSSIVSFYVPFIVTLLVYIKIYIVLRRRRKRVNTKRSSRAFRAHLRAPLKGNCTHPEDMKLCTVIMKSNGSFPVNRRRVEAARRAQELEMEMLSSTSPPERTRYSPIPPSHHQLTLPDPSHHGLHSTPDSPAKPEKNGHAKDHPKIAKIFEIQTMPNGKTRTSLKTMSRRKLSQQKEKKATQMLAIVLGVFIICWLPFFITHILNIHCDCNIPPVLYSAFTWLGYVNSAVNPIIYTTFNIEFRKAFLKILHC
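PathHunter beta-arrestin assay in DiscoveRx D2 cells. Compounds were added with an EC20 of dopamine (50 nM final) for 90 min at 37 deg C. Luminescence was read 1 h after detection reagent, with 57 uM dopamine as the EC100 control.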
PINK1 expr mod – modulators of PINK1 expression. PINK1 immunofluorescence, high-content cytometry, 24 h. Potency, µM (series often up to 76.6 µM), without a hit: at the highest dose activation (PINK1 increase), hits mostly activators. 0.2% of 410,000 active. AID 624263; active = well fitted activation curve with a large enough effect; inconclusive = small, poorly fitted or top-dose-only effect; inactive = flat fitted curve, though single readings scatter; cell line not stated here;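 also: potency is read from the fitted curve at half-maximal effect; % of control where 0% means no effect; nearly all actives have a fitted effect of over 65% in size; a mitochondrial uncoupler was the plate control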
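Stable cell line, 250 cells/well, 12 h attachment; compounds pinned at 5 concentrations, 24 h; CCCP control. Fixed with nuclear dye, primary antibodies 12 h at 10 degrees C, secondary plus cell stain; laser-scanning cytometer read.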
D2 agonist – human D2 receptor agonism in beta-arrestin assay; P14416; DiscoveRx PathHunter D2 beta-arrestin, luminescence, 90 min; 100% = 57 uM dopamine signal; activation, % (no concentration beside the values); 0.084% of 360,000 active; AID 624465; in the data active = activation above about 40%; inconclusive = about 15% to 40%; inactive = below about 15%; also: compound concentration not given in the record; the text of the record calls up to 30% inactive
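Agonist mode: compounds alone added to overnight-plated D2 PathHunter cells for 90 min at 37 C, with 57 uM final dopamine (EC100) defining full response. Beta-arrestin recruitment detected by chemiluminescent reagent, read after 1 h at ambient temperature.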
TRPML1 ag – agonists of human TRPML1 channel; activation, % (concentration not given with the values); Q9GZU1; 0.12% of 410,000 active; AID 624414; TRPML1-expressing cells, Ca2+ dye fluorescence, FDSS; host cell line not named in the record; reference of the full effect not given here; in the data active = activation above about 50%; inconclusive = about 30% to 50%; inactive = below about 30%; also: 0% is about no effect; the text of the record puts the active cut at 80%
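Calcium fluorescence on an FDSS kinetic reader gave the read-out. Tet-induced TRPML1-DL cells were plated overnight, dye-loaded (Ca8 with quencher, 45-90 min, room temperature, dark), then read 110 s after compound addition, and again 110 s after 4uM final 54-4 (EC80).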
Six1-Eya2 inh – Six1/Eya2 interaction inhibition; activity change, % (concentration not given with the values); 0.56% of 360,000 active; AlphaScreen GST-Six1/His-Eya2 binding, biochemical; stronger effect = lower value; control for the full effect not named in the record; Q15475+O00167; AID 651725; in the data active = activity change below about -65%; inconclusive = about -30% to -65%; inactive = above about -30%; also: % is scaled to controls: 0 for no effect and ±100 for the full control effect
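AlphaScreen with GST-Six1 and His-Eya2 (5X mix: 250 nM and 500 nM), glutathione donor and nickel acceptor beads; buffer 50 mM Tris pH 8.0, 300 mM NaCl, 1 mM TCEP; 1 h at 37 C in the dark.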
* marks the source's active call; other numbers are inactive results; ? = inconclusive; . = no result given; & = joins results of further samples; [ ] = another dose, or the depositor's remark.

SMILES | TRPML1 inh | D2 PAM | PINK1 expr mod | D2 agonist | TRPML1 ag | Six1-Eya2 inh
CC(NC(=O)CCN1C(=O)c2ccccc2S1(=O)=O)c1ccccc1 (configuration not stated) | -8 | 0 | 0.7% | -0.7 | 0.1 | 9
O=C(NNC(=S)Nc1ccccc1C(F)(F)F)c1cccnc1 | 13 | -16 | -1.3% | -5.9 | -0.2 | 17
COc1ccc(N(C(=O)Cn2nnc(-c3ccc(F)cc3)n2)C(C)C(=O)NC2CCCC2)cc1OC (configuration not stated) | 19 | -5 | 4.0% | -13 | -1.2 | -3
COc1ccc(C(=O)/C=C/c2ccc(OC)cc2OC)c(O)c1 | . | -28 | 0.1% | -4.5 | . | 5
Oc1ccc(/C=N/NC(=S)NCC2CCCO2)cc1 (configuration not stated) | 14 | -6 | 0.8% | -2.0 | -0.9 | -4
COc1ccc(C2=NS(=O)(=O)N(C)C(C(=O)NC3CCCC3)=C2)cc1 | -7 | -9 | 1.6% | -1.6 | 0.0 | -1
CSc1ccccc1NC(=O)CCS(=O)(=O)c1nc(-c2ccc3c(c2)OCO3)cc(C(F)(F)F)n1 | 14 | . | -0.7% | . | 2.1 | .
COc1cccc2c1cc1c(=O)n(CC(=O)NCCCN3CCN(C)CC3)nc(C)n12 | -3&-5 | -4 | -0.5%&0.2% | 0.2 | -0.5&-0.2 | 5
O=C(Nc1ccc(Cl)cc1)Nc1ccc(C(=O)N2CCOCC2)cc1 | 1 | -12 | -1.5% | -2.7 | -0.5 | 4
O=C1c2c(O)cc(O)cc2O[C@@]12c1c(cc(O)c3c1O[C@H](c1ccc(O)cc1)[C@@H](O)C3)O[C@@H]2c1ccc(O)cc1 | 27 | -6 | 1.2% | 1.0 | 0.2 | -7
C=CCS(=O)(=O)N1CCCC(N(C)CCc2ccc(OC)c(OC)c2)C1 (configuration not stated) | 5 | -8 | -1.0% | 1.1 | -0.6 | -2
Cc1sc2ncn(CC(=O)Nc3c(F)cccc3F)c(=O)c2c1S(=O)(=O)N1CCC(C)CC1 | -26 | -4 | -0.1% | 1.0 | 2.9 | -5
CCOC(=O)C1(Cc2ccccc2C(F)(F)F)CCN(C2CCN(C(C)C)CC2)CC1 | -5 | -15 | 2.8% | -1.4 | 1.3 | 3
Cc1cccc(/C(N)=N/OC(=O)N2CCOCC2)c1 | 0 | 21 | . | 1.1 | -0.3 | 4
Nc1cc(OC(=O)c2ccc(F)cc2)nn1S(=O)(=O)c1ccccc1 | -2 | -3 | 3.1% | 3.2 | -1.5 | -10
O=C(O)c1ccc(Cl)cc1NC(=O)C1CCN(S(=O)(=O)c2cccs2)CC1 | 20 | -4 | 0.5% | -5.7 | -0.7 | -11
CC(OC(=O)CN1C(=O)c2ccccc2C1=O)C(=O)NC1CCCCC1 (configuration not stated) | -4 | -4 | 1.4% | -3.9 | 1.4 | 0
COC(=O)c1ccc(CSc2nc3c(c(=O)n2-c2ccccc2)SCC3)o1 | 5 | -5 | 0.1% | -6.1 | 0.2 | -2
Cc1ccccc1CNC(=O)CN1CCSc2ccccc21 | 0 | . | -0.9% | . | 2.5 | .
CCCCN(CC)C(=O)Cn1c(=O)sc2ccccc21 | 1 | -10 | . | -1.5 | -0.3 | 0
Cc1ccc(C(CC(=O)N2CCOCC2)c2ccco2)cc1 (configuration not stated) | 5 | -3 | 1.6% | -2.8 | 1.4 | 0
O=C(NCCc1ccc(Cl)cc1)C1CCC(=O)N1Cc1ccccc1Cl (configuration not stated) | -4 | -10 | -5.2%[38.3 µM] | -1.4 | 0.0 | 1
Cc1nc(S(=O)(=O)Cc2ccccc2Cl)nc2c1CCC2 | -6 | -2 | 1.7% | -4.7 | 0.8 | -4
O=C(CN1CCN(S(=O)(=O)c2cccc(F)c2)CC1)Nc1ccnn1C1CCCC1 | 3 | 0 | 1.8% | 5.8 | -0.2 | 9
Cn1c(SCC(=O)Nc2ccc(F)cc2)nnc1-c1cccnc1 | -9 | -3 | 0.7% | -4.9 | -0.8 | -5
Cc1ccc(Sc2nc([N+](=O)[O-])nn2C)cc1 | -12 | 5 | 3.8% | -0.3 | -0.4 | 1
O=C(CCCOc1ccc(Cl)cc1)NC1CCCCC1 | -21 | 0 | 4.2% | 1.4 | 1.1 | 0
Cc1cc(NC(=O)C2CCN(S(=O)(=O)c3cccc4nsnc34)CC2)ccc1Br | -6 | . | 8.0% | . | 2.4 | .
COc1ccc(NC(=O)CC2SC(N3CCCC3)=NC2=O)cc1Cl (configuration not stated) | 21 | -3 | 1.0% | 8.7 | 0.2 | 7
O=C(CNC(=O)c1ccccc1)OCc1nc2ccccc2s1 | 6 | 2 | 0.8% | -3.5 | -0.1 | -7
Cc1cc(-c2ccc(S(=O)(=O)N3CCN(c4ccc(F)cc4)CC3)s2)on1 | 1 | 6 | 6.5% | -1.8 | -0.3 | 22
Cc1ccc(Nc2c(-c3ccc(Cl)cc3)nc3sccn23)c(C)c1 | 76 | . | 3.5% | . | 1.9 | .
CN(C(=O)COc1cc(C(F)(F)F)nn1C)c1ccccc1 | -13 | -9 | 0.0% | 0.2 | 0.0 | 1
O=C(NC1CCCCC1)/C(=N\O)c1ccccn1 | -9 | 1 | . | 1.3 | -0.1 | 6
COc1ccc(NC(=O)Cc2nnc(SCC(=O)Nc3ccc(F)cc3)n2C)cc1 | -21 | 4 | -1.6% | -1.2 | -0.1 | 0
Cc1cc(F)ccc1NCc1cccnc1 | -11 | 4 | -2.9% | -0.5 | -0.9 | -1
Cc1ccc(/C=C/C(=O)NC(=S)N2CCN(c3ccc(F)cc3)CC2)cc1 | 5 | -4 | 1.3% | -4.7 | -0.7 | 38
O=[N+]([O-])c1ccc(NC(=S)NCCc2ccccc2)cc1 | -10 | -14 | ? | 1.8 | 2.0 | -10
O=C(NC1CCCN(Cc2ccc(Cl)cc2)C1)c1cccc(F)c1 (configuration not stated) | 7 | -6 | 0.7% | -6.3 | 0.4 | 0
COc1ccc(NC(=O)COC(=O)CCCc2c[nH]c3ccccc23)cc1OC | -7 | -11 | 12%[38.3 µM] | -1.8 | -0.1 | -10
CC(=O)c1cc(-c2ccccc2)n(CCC(=O)NCc2ccc(C)cc2)c1C | 14 | . | 2.5% | . | 2.0 | .
O=C(Nc1ccccc1)N1CCN(c2ncccn2)CC1 | 2 | -3 | 0.2% | 0.1 | -0.6 | 5
Cc1ccc(S(=O)(=O)N(C)CCCC(=O)NC(C)(C)CO)cc1 | -26 | -4 | -1.8% | 0.1 | -0.6 | 2
CC1(C)CC(=O)C2=C(C1)Nc1ccccc1NC2c1ccccn1 (configuration not stated) | -1 | 10 | 1.1% | -0.8 | 1.1 | 11
O=C(NC(=S)Nc1ccccc1)c1cncc(C#Cc2ccccc2)c1 | -22 | 0 | 15% | 0.6 | 2.2 | 4
O=C(NCc1ccc(Cl)cc1Cl)C(=O)N1CCCCC1 | -2 | 2 | -1.8% | -5.5 | -0.1 | -1
CC(C)(C)NC(=O)C(c1ccncc1)N(C(=O)CNC(=O)c1ccco1)c1ccc2c(c1)OCO2 (configuration not stated) | -2 | 11 | -0.7% | 2.5 | -0.8 | 0
CC(=O)Nc1ccc(S(=O)(=O)Nc2ccc3c(c2)OCO3)cc1 | 2 | -2 | -0.8% | 2.5 | 5.8 | -2
COc1cc(NS(=O)(=O)c2ccc(C)c(C)c2)c(OC)cc1Cl | 6 | -2 | 3.1%[38.3 µM] | -0.1 | 1.4 | -1
COc1cc(C(=O)Nc2scc(-c3ccccc3)c2C(=O)O)cc(OC)c1OC | -4 | -14 | -0.7% | -4.5 | 0.4 | 7

Remaining list, next part
SMILES | TRPML1 inh | D2 PAM | PINK1 expr mod | D2 agonist | TRPML1 ag | Six1-Eya2 inh
COc1ccc(C(C)=O)cc1OCc1ccccc1 | -9 | -2 | 0.2% | -2.1 | -0.1 | 7
COc1ccc(C(C)=O)cc1CSc1nnc(Nc2ccc(C)cc2C)s1 | -11 | -7 | -0.4% | 0.3 | 4.4 | -3
COc1ccc(NC(=O)C2CCCN(C(=O)Nc3ccc(F)cc3)C2)cc1 (configuration not stated) | 13 | -20 | -1.0% | -6.1 | 0.1 | 3
O=C(CNS(=O)(=O)c1ccc(F)cc1)Nc1ccc(C(F)(F)F)cc1 | -2 | -4 | -0.7%[38.3 µM] | 5.1 | 0.9 | 3
Cc1occc1C(=O)N(C)Cc1nc(-c2ccccc2)no1 | 2 | -7 | -0.4% | -4.4 | 0.0 | -4
Cc1cccc(NC(=O)c2c(NC(=O)c3ccccc3)sc3c2CCCC3)c1 | -28 | . | 1.8% | . | 1.1 | .
CNC(=O)c1sc(NCc2ccccc2OC)nc1C | 6 | -4 | -0.9% | -2.1 | -0.4 | -4
CCC(=O)c1c[nH]c(C(=O)NCCCn2ccnc2)c1 | 2 | -26 | -1.2% | -1.0 | 1.7 | -12
C[C@@H]1CCC(=O)N(CC[C@H](N=[N+]=[N-])c2ccccc2)CC1 | -20 | -3 | 0.1% | -0.2 | -0.5&-0.7 | 6
COCCNC(=O)CSc1nc2ccccc2c(=O)n1CCCC(=O)NCc1ccccc1 | 6 | 8 | 2.8% | -2.9 | -0.4 | 6
Cc1ccc(C(=O)Nc2c(-c3ccc(Cl)cc3)[nH][nH]c2=O)cc1 | . | -32 | -1.6% | -14 | -0.5 | 12
COc1ccc(C2CC(c3ccc(Br)cc3)=NN2C(=O)CN2CCCC2)cc1 (configuration not stated) | 30 | -10 | 0.2% | -1.6 | 0.6 | -4
Cn1cc(CN2CCC(C(=O)Nc3ccc(Oc4ccccc4F)cc3)CC2)cn1 | 6 | -25 | 1.2% | 7.0 | 0.9 | 3
Cc1ccc(N2CCN(C(=O)NCc3noc4ccc(C)cc34)CC2)c(C)c1 | 28 | . | -0.7% | . | 1.9 | .
CC(=O)OCc1cnc(C)c2oc(=O)c(C(=O)Nc3ccc(F)cc3C)cc12 | 4 | . | 1.9% | . | 2.8 | .
O=C(Cn1nc(Cl)nc1Cl)c1ccc2c(c1)OCCO2 | 13 | -15 | -0.5% | -2.1 | 1.1 | -1

Reprinted at random: six entries already listed
SMILES | TRPML1 inh | D2 PAM | PINK1 expr mod | D2 agonist | TRPML1 ag | Six1-Eya2 inh
CC(=O)OCc1cnc(C)c2oc(=O)c(C(=O)Nc3ccc(F)cc3C)cc12 | 4 | . | 1.9% | . | 2.8 | .
Cc1ccc(N2CCN(C(=O)NCc3noc4ccc(C)cc34)CC2)c(C)c1 | 28 | . | -0.7% | . | 1.9 | .
O=C(Cn1nc(Cl)nc1Cl)c1ccc2c(c1)OCCO2 | 13 | -15 | -0.5% | -2.1 | 1.1 | -1
COc1ccc(C2CC(c3ccc(Br)cc3)=NN2C(=O)CN2CCCC2)cc1 (configuration not stated) | 30 | -10 | 0.2% | -1.6 | 0.6 | -4
Cn1cc(CN2CCC(C(=O)Nc3ccc(Oc4ccccc4F)cc3)CC2)cn1 | 6 | -25 | 1.2% | 7.0 | 0.9 | 3
Cc1ccc(C(=O)Nc2c(-c3ccc(Cl)cc3)[nH][nH]c2=O)cc1 | . | -32 | -1.6% | -14 | -0.5 | 12

Screening data from PubChem.

Rows were taken by chance, and some 1% of all compounds hit somewhere here.
